Bioassay records as filed in PubChem.
Beta2AR agonist = human beta-2 adrenergic receptor agonism by FAP | Am2.2-beta2AR cells, FAP receptor internalization, flow cytometry; reference of the scale not given here | response, % (concentration not given with the values) | AID 504454 | actives 0.43% (n = 340,000);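 active = response above a set limit, near 3 SD of response in nonfluorescent compounds, cut at about 42% in these data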;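 note: stock transfer was 100 nL into about 11 µL; a reference agonist was the positive control; negative values mostly stem from fluorescent compounds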
Beta apoptosis = beta cell apoptosis inhibition | INS-1E cytokine-induced death, ATP luminescence, 48 h; percent of positive-control rescue, neutral wells zero | protection from apoptosis, % (concentration not given with the values) | actives 0.8% (n = 300,000) | AID 435005;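 active = all replicates at 75% or more, or half of them and the mean; inconclusive = half reach 75% but not the mean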;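 note: 0% = cytokine-treated negative control wells and 100% = positive control rescue; higher means more ATP so stronger rescue from cytokine killing; wells of about 40 µL received 100 nL stock; the first replicate is given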
T cruzi inh = blocks replication of Trypanosoma cruzi. T. cruzi beta-gal in NIH3T3, luminescence, 90 h. inhibition, % (test concentration not listed). actives 1.4% (n = 300,000). AID 1885;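 active = mean inhibition across valid replicates above about 55%, limit read from the data; inconclusive = mean below that limit but half or more replicates reach it; inactive = mean below it, under half of replicates reach it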;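 note: signal also drops with host cell toxicity which is not excluded here; 0% = plate median of DMSO wells and 100% = zero luminescence signal; higher percent means less beta-gal luminescence so fewer parasites; stock transfer was 50 nL into about 50 µL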
LANA-H2B inh = blocks KSHV LANA binding to histone H2A/H2B | Q9QR71 | cell-free LANA-H2A/H2B peptide, fluorescence polarization | inhibition, % (concentration not given with the values) | actives 0.6% (n = 320,000) | AID 2629; in the data active = inhibition mostly above about 10%, no sharp cut-off; inactive = mostly below about 6.7%;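 note: stock transfer was 7.5 nL into about 10 µL; 0% = median of vehicle wells and 100% = median of positive control wells; one replicate is shown; the record names a cut of 25% in any replicate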
Target sequence (Q9QR71 whole entry, looked up): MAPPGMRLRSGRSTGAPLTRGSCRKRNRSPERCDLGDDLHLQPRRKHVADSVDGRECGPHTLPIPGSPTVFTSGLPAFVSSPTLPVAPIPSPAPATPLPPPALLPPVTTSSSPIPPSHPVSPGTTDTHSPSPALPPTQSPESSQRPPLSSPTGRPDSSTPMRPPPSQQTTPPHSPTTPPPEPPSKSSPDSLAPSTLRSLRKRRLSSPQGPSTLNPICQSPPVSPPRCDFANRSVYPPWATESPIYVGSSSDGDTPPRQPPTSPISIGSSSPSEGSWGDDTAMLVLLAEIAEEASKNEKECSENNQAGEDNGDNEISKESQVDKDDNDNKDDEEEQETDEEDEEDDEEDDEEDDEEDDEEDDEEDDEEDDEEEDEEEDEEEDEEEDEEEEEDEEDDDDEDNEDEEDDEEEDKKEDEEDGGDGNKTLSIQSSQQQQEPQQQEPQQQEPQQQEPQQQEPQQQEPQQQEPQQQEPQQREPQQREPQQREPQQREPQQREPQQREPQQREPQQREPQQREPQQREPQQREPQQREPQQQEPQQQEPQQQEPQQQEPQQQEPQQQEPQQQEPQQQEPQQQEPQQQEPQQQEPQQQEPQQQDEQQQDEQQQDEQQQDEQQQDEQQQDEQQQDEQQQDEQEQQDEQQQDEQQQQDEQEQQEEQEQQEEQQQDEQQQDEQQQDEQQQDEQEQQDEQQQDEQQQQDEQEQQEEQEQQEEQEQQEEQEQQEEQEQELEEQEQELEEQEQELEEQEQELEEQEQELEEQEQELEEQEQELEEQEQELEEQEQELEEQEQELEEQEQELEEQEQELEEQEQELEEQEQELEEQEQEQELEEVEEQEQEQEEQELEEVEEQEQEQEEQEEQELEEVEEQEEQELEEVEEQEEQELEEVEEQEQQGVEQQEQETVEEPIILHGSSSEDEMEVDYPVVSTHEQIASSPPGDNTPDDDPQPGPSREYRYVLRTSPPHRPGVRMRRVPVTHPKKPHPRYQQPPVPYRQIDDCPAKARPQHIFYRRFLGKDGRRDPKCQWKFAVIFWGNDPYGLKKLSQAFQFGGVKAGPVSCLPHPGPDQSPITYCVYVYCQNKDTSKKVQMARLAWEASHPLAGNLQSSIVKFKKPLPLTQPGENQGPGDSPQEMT
Bfl-1 A1 inh = inhibitors of the anti-apoptotic protein A1, read as caspase activation | MEF A1-2A-BIM cells, Caspase-Glo 3/7 luminescence, 3 h; percent of clofoctol response, vehicle zero | caspase activation, % (no concentration beside the values) | actives 0.066% (n = 330,000) | AID 2462;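 active = over half of replicate activation scores above 10%, or exactly half above 10 with the replicate mean above 10; inconclusive = replicate mean below 10 yet half the replicates above 10; inactive = over half of replicates below 10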;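 note: wells of about 30 µL received 50 nL stock; many hits fall short of the cut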
RanGTP-Imp inh = disruptors of Ran-importin-beta complex formation – biochemical, FRET, CFP-Ran, YFP-importin-beta, homogeneous, primary screen. inhibition, % (concentration not given with the values). actives 1.1% (n = 300,000). cell-free CFP-Ran/YFP-importin-beta FRET ratio;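 active = most replicates above 15%; inconclusive = exactly half above 15%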;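 note: 0% = DMSO wells and 100% = Ran loaded with GDP instead of GTP; wells of about 40 µL received 100 nL stock; the first replicate is given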
UCH37 inh = blocks the human deubiquitinase UCH37. purified proteasome/UCH37, Ub-AMC cleavage fluorescence. inhibition, % (test concentration not listed). actives 0.33% (n = 330,000). AID 588478;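 active = mean of two replicates above 20%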;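 note: 0% = compound-free wells with enzyme and 100% = wells lacking proteasome; stock transfer was 100 nL into about 20 µL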
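Assay system: Proteasome-bound UCH37. Buffer or medium: pH 7.4 Tris-HCl (50 mM) with ovalbumin, ATP-MgCl2, DTT. Incubation: 30 min preincubation with enzyme, 25 min cleavage at room temperature. Measured by: fluorescence, ex 355 nm, em 460 nm. Read-out basis: percent inhibition. Control set: wells without proteasome as full block, compound-free enzyme plus substrate as uninhibited.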
Calb FLC = affects C. albicans growth with fluconazole; C. albicans CaCi-2 (fluconazole-resistant clinical isolate) + fluconazole, Alamar Blue growth, 48 h; growth inhibition, % (concentration not given with the values); actives 0.57% (n = 300,000);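 active = most replicates above 75%; inconclusive = exactly half above 75%; inactive = most below 75%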;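 note: all wells also contain fluconazole at 8 µg/ml as a sub-toxic cotreatment; 0% = median of DMSO wells and 100% = median of geldanamycin control wells; wells of about 8 µL received 7.5 nL stock; the first replicate is given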
Numbers without * were called inactive; u = inconclusive; x = not tested or not shown.

SMILES	Beta2AR agonist	Beta apoptosis	T cruzi inh	LANA-H2B inh	Bfl-1 A1 inh	RanGTP-Imp inh	UCH37 inh	Calb FLC
Cn1c(C(=O)NCCc2ccccc2)cc(=O)n(C)c1=O	-1	-6	-21	-2.0	0.3	-0.8	4.7	5
COC(=O)C1CCN(C(=O)c2cc(OC)c(OC)c(OC)c2)CC1	6	1	-4	-2.0	0.5	-5.3	0.8	8
Cc1sc2nc(CN3CCCC3)nc(N3CCN(S(=O)(=O)c4cccs4)CC3)c2c1C	5	-1	46	6.2	1.5	u	3.9	-14
COCCNC(=O)C1CCCN(S(=O)(=O)c2c(C)noc2/C=C/c2cccs2)C1 (stereo not given)	-9	5	-2	1.0	1.6	2.9	2.7	5
CCOP(=O)(OCC)C(Nc1ccccc1)c1ccccc1C(F)(F)F (stereo not given)	5	0	15	2.4	-0.8	-0.3	-0.1	2
Cc1cc(C)cc(NC(=O)c2cccc(C(=O)Nc3cc(C)cc(C)c3)n2)c1	2	-1	-12	-4.8	-0.4	-4.0	-13	-1
O=C(Cc1ccc(S(=O)(=O)N2CCCCC2)s1)Nc1ccc(F)c(F)c1	-13	x	20	3.1	-1.2	4.0	-0.9	-10
O=C(N/N=C/c1ccc([N+](=O)[O-])cc1)c1ccc(COc2ccccc2-c2ccccc2)cc1	7	9	61*	-0.6	0.3	-0.6	x	-4
O=C(CN1CCC(C(O)(c2ccccc2)c2ccccc2)CC1)Nc1cc(Cl)ccc1Cl	11	5	55*	-1.1	-0.6	0.3	5.5	9
O=C(NC1CCCC1)c1cc(-c2cccc(Cl)c2)on1	-5	9	5	0.1	0.1	-1.5	0.4	-14
CN(C)C(CNC(=O)c1c(F)cccc1Cl)c1ccco1 (stereo not given)	-3	-1	-6	-0.3	-0.5	-7.0	2.3	2
COc1ccc(C)cc1-n1c(SCC(=O)Nc2cc(C)on2)nc2sc(C)c(C)c2c1=O	7	x	24	-7.7	0.3	2.1	4.1	0
CCOc1ncccc1C(=O)Nc1ccc(S(=O)(=O)Nc2cc(C)nc(C)n2)cc1	4	7	x	0.7	1.5	x	-1.1	x
Cc1ccc(S(=O)(=O)NCC(=O)OCC(=O)NCc2ccco2)cc1	6	-3	x	-0.6	0.3	x	1.5	x
CC(/C=N/N1CCN(c2ccccn2)CC1)=C\c1ccccc1	-4	7	-11	2.4	-3.4	2.3	x	3
CC1CCCCC1NC(=O)C1CCN(c2c3c(nc4ncnn24)CCC3)CC1 (stereo not given)	-6	1	-1	3.1	-0.3	-0.5	2.1	-6
O=C(O)Cc1ccc(NC(=O)c2ccc(Cl)c(Cl)c2)cc1	5	2	39	2.6	-0.1	0.4	0.1	-12
O=c1[nH]c(CSc2ncnc3sccc23)nc2cc(C(F)(F)F)ccc12	2	-6	7	5.9	-0.3	u	0.9	3
Cc1cc(C)cc(NC(=O)c2ccccc2CC[N+](=O)[O-])c1	-3	x	-5	3.0	0.4	2.1	3.2	1
COCc1ccc(CN2CCc3c([nH]c4ccccc34)C2C(C)(C)C)o1 (stereo not given)	8	-1	18	-4.3	1.1	1.2	-11	-8
O=C(CSCc1ccccc1F)NCc1ccccc1	-2	-4	-17	0.9	0.4	1.1	-1.6	-8
O=c1cc[nH]c2c1ccc1c(=O)cc[nH]c12	-2	x	8	3.1	-0.9	0.3	-135	-4
COc1ccc(C(CNC(=O)C(=O)Nc2ccc3c(c2)OCO3)N2CCN(C)CC2)cc1 (stereo not given)	1	x	-14	-2.8	-0.7	-7.6	2.9	-12
CCC(C)NC(=S)Nc1ccc2nc(N3CCN(CC)CC3)cc(C)c2c1 (stereo not given)	2	-1	24	4.7	1.0	-1.4	-9.0	-6
CCOC(=O)c1cc2c(=O)[nH]ccc2nc1C(F)(F)F	9	-5	5	3.1	-0.9	-0.3	-135	-9
CCOC(=O)c1c(NC(=O)CCC(=O)O)sc2c1CC(C)(C)OC2	5	-5	-9	11	-1.0	0.5	1.6	-6
O=C(O)c1ccc2c(c1)-c1nc3ccccc3n1C2=O	0	0	-18	-2.1	1.2	-0.9	-56	-12
COc1cccc(NC(=O)CSc2nncn2-c2ccccn2)c1	-14	-5	-12	-6.0	0.4	-0.8	2.4	-5
Cc1ccc(NC(=O)CN2c3cccc4cccc(c34)S2(=O)=O)cc1	1	-4	x	-4.0	0.0	x	-50	x
CCC1=Nc2cc(C(=O)NCCN3CCCC3)ccc2Sc2ccc(C)cc21	8	-11	30	-7.4	0.8	3.6	2.5	5
Cc1ccc(S(C)(=O)=O)cc1C(=O)Nc1cccc(S(=O)(=O)N2CCCCCC2)c1	-19	-2	x	5.2	2.2	x	4.1	x
CCn1c(=O)c2c(nc3n2CC(C)CN3CCc2ccccc2)n(C)c1=O (stereo not given)	4	4	22	1.9	-0.4	-0.8	2.6	-1
Cn1cc(CN2CCC(Oc3ccc(C(=O)N4CCCCC4)cc3)CC2)cn1	-2	-13	2	-3.1	0.4	2.8	x	2
O=C(/C=C/c1cccs1)c1ccc(N2CCOCC2)cc1	2	-4	4	2.8	-1.7	-6.5	11	5
Cc1ccc(C)c(-n2c(CNC(=O)c3ccco3)nnc2SCC(=O)N2CCc3ccccc32)c1	-14	2	8	0.2	-0.2	-0.1	1.1	-1
O=C(CN1CCC(C(=O)c2cccc(F)c2)CC1)NCc1cccs1	-1	-7	10	0.4	1.4	2.0	3.7	7
O=C(N/N=C/c1ccc([N+](=O)[O-])o1)c1cc(-c2cccc(Br)c2)nc2ccccc12	3	2	63*	5.3	0.4	-2.6	x	29
CCc1nnc2c(N(C)S(=O)(=O)c3ccc(C)cc3)nc3ccccc3n12	-16	-4	1	-5.4	0.6	u	-0.9	-1
CN1CCN(C(=O)c2ccccc2NC(=O)c2ccccc2)CC1	-4	-3	0	-9.6	1.1	0.8	0.2	31
Cc1cccnc1NC(=O)CCCN1C(=O)c2ccccc2C1=O	0	4	-32	-3.4	-0.2	2.3	1.7	-4
COc1cc2c(cc1NC(=O)/C=C/c1cc(OC)c(OC)c(OC)c1)oc1ccccc12	17	0	36	0.7	0.2	-1.7	-15	6
c1cncc(-c2ccc3[nH]ccc3c2)c1	-4	-5	x	-3.3	-0.1	x	2.0	x
N/C(=N\O)c1ccc(NC(=O)c2ccc(Br)o2)cc1	-1	0	4	-1.3	-5.8	-2.3	x	-16
CC(=O)Nc1ccc(NC(=O)C2CCCN2S(=O)(=O)c2cccc3nsnc23)cc1 (stereo not given)	-4	-12	-7	2.2	0.9	-4.1	5.9	17
CC(=O)Nc1ccc(S(=O)(=O)Oc2ccc3c(c2)C(C)=CC(C)(C)N3)cc1	x	34	-41	0.1	0.6	-1.5	x	28
COc1ccc(C2/C=C\CN(C(=O)C3CC3)CC(=O)N2Cc2ccc(F)cc2)cc1 (stereo not given)	2	-10	1	-1.0	-0.6	-1.6	0.8	1
CCn1ccnc1CN(C)C(=O)c1cc(COc2ccccc2SC)on1	-1	2	18	-0.7	-0.5	-1.1	-0.1	-1
O=c1[nH]c(/C=C/c2ccc(Cl)cc2Cl)c([N+](=O)[O-])c(=O)[nH]1	4	-4	2	10	-0.2	-4.1	8.4	1
O=C(O)CCCn1cc(NC(=O)COc2ccc([N+](=O)[O-])cc2)cn1	0	-1	-24	-2.1	0.0	-0.2	1.1	0
O=C1NC[C@@H](Cc2ccc(O)cc2)N(CCc2cccc3ccccc23)C1=O	-1	-3	-22	-0.2	0.8	1.5	-0.3	0
COc1ccc(/C=C/C(=O)OCC(=O)NCCC2=CCCCC2)cc1	-4	-1	-14	-2.2	1.5	-0.3	3.7	15
COc1cccc(NC(=O)CN(C)C(=O)c2cc(-c3ccccc3)nn2-c2ccccc2)c1	16	2	x	5.7	0.1	x	-0.5	x
O=C(Nc1ccccn1)C12CC3CC(C1)CC(C(=O)Nc1ccccn1)(C3)C2	-19	-5	-5	1.6	1.8	5.2	0.7	-3
O=C1CCNc2c(Cl)cccc21	-11	-2	1	-2.5	0.0	-15	-21	12
C/C=C/C(=O)OCC(=O)Nc1cc(OC)c([N+](=O)[O-])cc1C	-6	2	31	x	-0.5	5.3	4.9	-7
COc1cc(O)c(C(CCN2CCOCC2)c2cc(OC)c(OC)c(OC)c2)c(OC)c1 (stereo not given)	-6	-2	-18	3.3	0.0	6.1	0.4	-11
CN(C)S(=O)(=O)c1ccc(N)c([N+](=O)[O-])c1	-13	-5	-15	-1.0	2.4	5.0	1.3	-3
O=C(Nc1cccnc1)c1cc(F)cc(F)c1	3	0	-11	-3.3	0.0	2.0	-0.1	21
Cc1cccc(OCCNS(=O)(=O)c2ccc(Cl)cc2)c1	-5	-6	x	3.0	-0.6	x	4.6	x
O=C(CSc1nc(-c2ccco2)cc(C(F)(F)F)n1)Nc1ccc2c(c1)CCC2	-15	0	8	0.7	-0.2	3.1	1.9	1
Following part:
SMILES	Beta2AR agonist	Beta apoptosis	T cruzi inh	LANA-H2B inh	Bfl-1 A1 inh	RanGTP-Imp inh	UCH37 inh	Calb FLC
N/C(=N\S(=O)(=O)c1cc(C(F)(F)F)cc(C(F)(F)F)c1)c1ccc(Cl)cc1	3	15	x	-5.8	0.8	-9.0	3.6	44
COc1ccccc1CNS(=O)(=O)c1c(C(=O)N2CCCC2)c(C)n(C)c1C	1	x	8	-1.6	-0.6	u	0.3	-5
COc1cc(OC)cc(C(=O)NCc2nc(-c3ccccc3)no2)c1	-8	0	9	0.0	-0.9	-1.6	0.4	-20
COc1ccc(-c2nnc(SCC(=O)Nc3cc(C)on3)o2)cc1	-2	1	-17	2.9	-0.1	7.6	0.1	7
CC1=CC(=O)C=C(C)C1=NOc1ccccc1[N+](=O)[O-]	10	0	-9	0.5	0.4	1.5	4.6	0
N=C(N)SCC1=CCS(=O)(=O)C1	0	-9	1	3.5	0.4	-0.4	5.4	-16
COc1ccccc1OCC(=O)NNC(=O)Nc1ccc(Cl)cc1	2	x	-24	0.4	1.0	-1.8	3.4	-18
O=C(COC(=O)c1ccc(Cl)c(S(=O)(=O)N2CCCCC2)c1)NCC1CCCO1 (stereo not given)	1	-1	-9	0.6	0.1	-6.8	-0.6	12
O=C(NC(CSSCC(NC(=O)c1ccccc1)C(=O)O)C(=O)O)c1ccccc1 (stereo not given)	6	-3	-2	3.7	0.6	0.7	2.7	-4
Cc1ccc(NC(=O)CCNC(=O)c2ccc([N+](=O)[O-])cc2)cc1S(=O)(=O)N1CCOCC1	-5	-3	x	-1.0	-0.4	x	2.4	x
CCn1cc(C(=O)N2CCOCC2)c(=O)c2cc(S(=O)(=O)N(C)C)ccc21	-5	1	-5	-0.6	0.2	0.0	5.6	-2
C/C(=N\NC(=O)c1ccc(Cn2cc([N+](=O)[O-])cn2)o1)c1cccc(NC(=O)C(C)C)c1	9	x	-6	-0.9	0.4	0.7	x	3
